Screens as filed in PubChem.
eIF4H FP inh – human eIF4H binding inhibitors, primary screen, translation initiation inhibitor project, biochemical, uHTS, fluorescence polarization; Eukaryotic translation initiation factor 4H (Homo sapiens), Q15056; eIF4H fluorescence polarization binding assay; inhibition, % at 35 µM; hit rate 0.94% among 290,000;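 active means 50% or more with normal probe brightness, or confirmed in later tests; about a fifth of its hits are not listed in these tables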;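 further: calls also rest on retests at 20 µM and on dose response follow-up; 0% = protein and probe with vehicle and 100% = probe without protein; strong numbers were not always called active; many hits fall short of the cut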
PABP polyA inh – PABP poly(A) RNA binding inhibitors, primary screen, biochemical, fluorescence polarization, uHTS. Polyadenylate-binding protein 1 (Homo sapiens), P11940. inhibition, % at 35 µM. hit rate 1% among 290,000. AID 2014, 2009;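 active means 50% or more with normal probe brightness, or confirmed in later tests; about a fifth of its hits are not listed in these tables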;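 further: calls also rest on retests at 20 µM and on dose response follow-up; controls were probe without protein and protein plus probe with vehicle; some compounds called inactive have numbers as strong as hits; many hits fall short of the cut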
Target sequence (P11940 whole entry, looked up): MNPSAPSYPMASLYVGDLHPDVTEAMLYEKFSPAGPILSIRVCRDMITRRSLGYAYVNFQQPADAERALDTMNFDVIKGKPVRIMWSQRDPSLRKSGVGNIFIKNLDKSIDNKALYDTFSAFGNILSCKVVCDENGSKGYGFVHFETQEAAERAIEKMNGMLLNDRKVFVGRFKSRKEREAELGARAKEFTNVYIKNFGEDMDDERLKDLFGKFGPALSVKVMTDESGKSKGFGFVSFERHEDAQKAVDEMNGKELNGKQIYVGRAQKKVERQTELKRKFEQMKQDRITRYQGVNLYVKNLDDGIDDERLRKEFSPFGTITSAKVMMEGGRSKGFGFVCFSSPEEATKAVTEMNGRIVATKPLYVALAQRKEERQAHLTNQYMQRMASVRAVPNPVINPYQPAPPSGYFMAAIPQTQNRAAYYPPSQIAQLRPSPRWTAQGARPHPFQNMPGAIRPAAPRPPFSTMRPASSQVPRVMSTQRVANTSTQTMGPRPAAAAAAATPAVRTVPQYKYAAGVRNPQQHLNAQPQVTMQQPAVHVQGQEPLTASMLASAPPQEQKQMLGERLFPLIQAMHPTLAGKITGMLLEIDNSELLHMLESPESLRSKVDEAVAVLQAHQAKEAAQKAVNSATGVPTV
UUG fidelity – modulators of yeast start codon fidelity, primary screen, whole organism, S. cerevisiae, single point, plate reader; S. cerevisiae UUG-firefly luciferase reporter, luminescence/redox ratio; activity score, % at 18.7 µM; hit rate 0.13% among 350,000; AID 602363, 2012;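 active means replicate mean at a twofold rise or more, about +100% in these data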;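 further: firefly luciferase made from a UUG start codon reports start codon fidelity; reporter light over untreated wells divided by growth signal over untreated wells; some hits fall short of that in this replicate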
Rce1 inhib – yeast Rce1p protease inhibitors, primary screen, biochemical, fluorescence, cell-free homogeneous; yeast membranes, quenched prenylated peptide cleavage fluorescence; calls only; hit rate 0.27% among 290,000; AID 2563, 2010;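 active means fall in fluorescence gain of 50% or more versus controls, with final raw signal at or below 3038400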;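 further: plate controls were neutral control wells for no effect and wells lacking membranes for full effect; tested at 10 µM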
MT1-MMP act inh – blockers of MT1-MMP proenzyme processing, primary screen, HT1080 RFP-PRO-GFP cells, GFP/RFP fluorescence. Matrix metalloproteinase-14 (Homo sapiens), P50281. GFP/RFP ratio fluorescence, overnight; percent of plate control window, DMSO zero. GFP/RFP ratio change, % at 20 µM. hit rate 0.061% among 360,000. AID 651647, 2012;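 active means GFP/RFP ratio change of at least 30% with cell ATP level not reduced by more than half and red fluorescence within 50% of control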; further: strong numbers were not always called active
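Compound: 20 µM single dose, 1% DMSO / System: HT1080 RFP-PRO-GFP cells / Controls: DMSO and RFP-L50D-GFP cell wells / Read-out basis: GFP/RFP fluorescence ratio / Schedule: overnight compound exposure at 37 °C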
CSC inhib – cancer stem cell viability inhibitors, primary screen, luminescence | cancer stem cell-like cells viability | inhibition, % at 7.5 µM | hit rate 1.1% among 300,000;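 active means mean at 75% or more and at least half the replicates too; tested in HMLE shEcad cells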;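 further: 0% = median of negative and 100% = median of positive control wells; the first replicate is given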
Env fusion inh – inhibitors of HIV-1 Env-driven cell-cell fusion, primary screen, HeLa-JRFL effector, CEM21 target cells, luciferase; hit rate 1.1% among 360,000; inhibition, % at 12.3 µM; AID 651610, 2012;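 active means mean replicate inhibition score of at least 50 and every replicate individually at or above 50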;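 further: 0% = plate neutral controls and 100% = maraviroc near 300 nM; one replicate is shown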
MT1-MMP act inh RFP – second read-out of MT1-MMP act inh, no call of its own (marks repeat the call); RFP signal change, %; measured here: RFP expression control read;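 0 = vehicle wells; hits needed this value within 50% of zero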
* marks the source's active call; other numbers are inactive results; i = inactive; · = not tested or not shown. This is a subset; the hit share may differ from the screen's.

SMILES,MT1-MMP act inh RFP,UUG fidelity,Env fusion inh,Rce1 inhib,eIF4H FP inh,MT1-MMP act inh,PABP polyA inh,CSC inhib
NC(=O)C1CCCN(C(=O)c2ccc(Cl)c(S(=O)(=O)N3CCc4ccccc43)c2)C1 (stereo not drawn),-20,-7,-312,·,·,-3,·,·
Cc1ccn2c(=O)nc(SCC(=O)NC3CCCC3)nc2c1,2,-30,5,i,·,-1,·,10
CC(=O)Nc1cccc(NC(=O)Nc2cccc3ccccc23)c1,-4,-19,-5,i,-9,1,-8,-4
CC(=O)Nc1ccc(NC(=O)CSc2nc3c(=O)n(C)c(=O)n(C)c3n2C)cc1,4,·,27,i,·,-1,·,·
CCCCCn1c(CN2CCN(C(=O)OCC)CC2)nc2c1c(=O)[nH]c(=O)n2C,1,-7,-57,i,18,-1,2,-5
O=C(N/N=C/c1ccc(N2CCCCC2)o1)c1ccccc1,6,·,0,·,7,-3,-4,-3
CC(=O)N1CCN(Cc2cc(=O)n3cc(Cl)c(C)c(Cl)c3n2)CC1,-1,-8,-48,i,-7,-4,-3,·
COc1ccc(CCNC(=O)c2ccc(=O)[nH]c2)cc1,3,-11,0,i,6,1,6,2
CCOC(=O)c1ccc(N2C(=O)CC(N3CCCC(C)C3)C2=O)cc1 (stereo not drawn),1,-20,·,i,3,-1,-5,-12
COc1ccc(Cn2nnc3c(=O)[nH]c(C4CCN(C(=O)c5ccccc5Cl)CC4)nc32)cc1,-3,0,·,i,8,1,0,-18
Cc1cccc(C)c1NC(=O)C1CCCN1C(=O)NCc1ccccc1 (stereo not drawn),4,-10,10,i,-3,2,-2,-4
COC1(c2ccccc2)NC(=S)NN=C1c1ccccc1 (stereo not drawn),2,-14,·,i,4,1,9,·
CCOC(=O)CSC1=C(C#N)C(c2ccc(C)cc2)C(C(=O)OC)C(=O)N1 (stereo not drawn),-1,-17,·,i,-8,-2,1,18
COc1ccc(C(=O)Nc2ccc(NC(C)=O)cc2)cc1S(=O)(=O)N1CCCCC1C (stereo not drawn),3,-20,·,·,·,3,·,-16
N#CCSc1nn(-c2ccc(F)cc2)c(=S)s1,2,·,18,i,6,-2,8,-20
Cc1ccc(S(=O)(=O)N2CCCC2)s1,3,7,-8,i,3,-3,4,-3
NC(N)=Nc1nc2ccc(Cl)cc2c(=O)[nH]1,0,·,-11,i,5,-1,-3,-8
Cc1ccc(S(=O)(=O)N2C[C@]3(O)C[C@@H]4C(=O)N(c5ccccc5)C(=O)[C@@H]4C[C@]3(OC(=O)Nc3c(C)noc3C)C2)cc1,3,20,-2,·,·,1,·,·
CCOc1cccc(NC(=O)C2CC(=O)N(C)C(=Nc3ccccc3)S2)c1 (stereo not drawn),-6,·,·,i,-6,23,-6,-8
O=C(c1ccccc1)c1ccsc1C(=O)c1ccccc1,-1,5,-9,·,·,-2,·,·
CCCNC(=O)c1cc2c3ccccc3n(C)c2s1,-1,-7,-18,i,-6,2,-6,7
CCc1ccc(C=C2SC(=S)N(CCCC(=O)Nc3ccc(C(=O)O)cc3)C2=O)cc1,-8,11,28,·,·,20,·,·
O=C(c1cc(-c2ccccc2)on1)N1CCN(C(=O)c2ccco2)CC1,-1,-10,·,i,-10,4,1,-9
CC1(C)CC(=O)C2=C(C1)N(Cc1ccccc1)C(=O)C2(O)C(F)(F)F (stereo not drawn),3,19,·,i,-7,2,5,-3
Cn1c(-c2ccc3c(c2)OCO3)cnc1NCc1ccccc1Cl,-2,·,-33,i,-1,-2,8,7
O=C(Nc1ccccn1)c1ccc(Cl)s1,1,-18,-87,i,-6,1,-7,-1
c1cc(CNC2=NCCCCC2)ccn1,9,·,-2,i,-14,6,26,-24
O=C(COC(=O)c1cc(Br)ccc1O)Nc1cccnc1Cl,0,·,5,i,·,3,·,-15
CC(=O)c1ccc(OC(C)C(=O)Nc2cccc(S(=O)(=O)NCc3ccco3)c2)cc1 (stereo not drawn),4,-31,·,·,·,2,·,-6
CN(Cc1cn(C)nc1-c1cccc(Cl)c1)C1CCOCC1,1,·,-3,i,5,-5,3,5
CN1CCN(NC(=O)c2cc(S(=O)(=O)Nc3ccc(Cl)cc3)ccc2Cl)CC1,4,·,6,i,-2,3,17,7
CCSc1nc2c(sc3ccccc32)c(=O)n1C(C)C,0,-19,25,i,3,-6,1,50
Cc1ccc(C2CC(=O)NC3=C2C(=O)CCC3)cc1Br (stereo not drawn),-2,-11,·,i,-4,2,-6,-1
CCn1c(C)nc2cc(C(=O)NN=Cc3ccccc3OC(F)F)ccc21,-1,-10,-67,·,·,3,·,-6
CCc1nc(SCc2ccc(OC)cc2)n[nH]1,2,-18,-40,i,-5,1,-6,-14
CNC(=O)COC(=O)[C@@H](Nc1ccc(S(=O)(=O)N2CCOCC2)cc1[N+](=O)[O-])C(C)C,5,·,-21,i,6,8,-3,-12
CC1(c2nnc(-c3ccc(Cl)cc3)o2)CC(c2ccc(Cl)cc2)=NO1 (stereo not drawn),5,-12,-13,i,4,1,10,2
CC(=O)c1c(N2CCN(C(=O)c3ccco3)CC2)nc(=S)n(-c2ccccc2)c1C,3,25,·,i,-1,-1,0,-7
Cc1ccccc1OCCSc1nc2ncnc(N)c2[nH]1,-3,1,0,i,3,3,-5,8
COC(=O)c1c(NC(=O)C2CC2)sc(C(=O)Nc2ccccc2)c1C,1,·,-19,i,2,-4,0,14

Looked up one by one from the list above, 2 records:
SMILES,MT1-MMP act inh RFP,UUG fidelity,Env fusion inh,Rce1 inhib,eIF4H FP inh,MT1-MMP act inh,PABP polyA inh,CSC inhib
CC(=O)c1c(N2CCN(C(=O)c3ccco3)CC2)nc(=S)n(-c2ccccc2)c1C,3,25,·,i,-1,-1,0,-7
Cc1ccccc1OCCSc1nc2ncnc(N)c2[nH]1,-3,1,0,i,3,3,-5,8

The listing continues:
SMILES,MT1-MMP act inh RFP,UUG fidelity,Env fusion inh,Rce1 inhib,eIF4H FP inh,MT1-MMP act inh,PABP polyA inh,CSC inhib
COc1ccc(N2C(=O)CC(N3CCC(O)(c4cccc(C(F)(F)F)c4)CC3)C2=O)cc1 (stereo not drawn),0,-11,9,i,-10,1,-7,0
CCOc1ccc(/C(O)=C2\C(=O)C(=O)N(c3ccc(OC)cc3)C2c2ccccc2[N+](=O)[O-])cc1 (stereo not drawn),-1,-33,-27,i,-2,-2,6,-3
COc1ccc(CSc2n[nH]c(C)n2)cc1Br,5,-21,·,i,-4,2,-9,0
O=C(/C=C/c1ccoc1)c1ccccc1O,8,-20,1,i,25,1,-6,3
CC1C(=O)N(Cc2cn(CCC3OCCCO3)nn2)CCS(=O)(=O)N1Cc1ccc(-c2ccc(Cl)c(Cl)c2)cc1 (stereo not drawn),-18,-3,64*,·,·,-4,·,·
Cc1ccc(N2C(=O)N(CC(=O)Nc3c(C)cc(C)cc3Cl)C(=O)C2C)cc1 (stereo not drawn),-1,·,12,i,·,7,·,-7
C[C@H]1COC(=O)[C@H](Cc2ccc(F)cc2)C/C=C\C[C@@H](CC(=O)N(CCO)Cc2ccccc2)C(=O)N1,3,0,-20,·,·,4,·,-13
NS(=O)(=O)c1ccc(NC(=O)CSc2ncn[nH]2)cc1,4,·,4,i,-5,4,-5,-6
COc1ccc(CNc2nc(-c3ccccc3)nn2C(=O)c2cccs2)cc1,1,·,-36,i,-8,-8,-4,-12
Cc1ccccc1OCC(=O)NCc1ccccc1,1,·,-3,i,13,1,8,-17
CCn1c(-c2cc3c(C(F)(F)F)nn(C)c3s2)n[nH]c1=S,2,-25,-227,i,-3,1,-3,-6
CCOc1ccc(S(=O)(=O)N2CCN(Cc3ccco3)CC2)cc1,-3,-10,-8,i,1,-5,9,0
CC(C)N(C)C(=O)c1ccc(OC2CCN(CCc3ccccc3)CC2)cc1,-1,·,4,i,0,2,-4,6
Cc1ccccc1Cn1cc(S(=O)(=O)c2ccc(C(C)C)cc2)c(=O)c2cc3c(cc21)OCO3,-6,-11,9,·,·,0,·,3
Cc1nn(-c2ccccc2)c(Cl)c1/C=N/NC(=O)CNC(=O)c1ccccc1Cl,-3,·,-3,i,-7,-4,-8,10
CN=C(Cc1ccccc1)C1=C(O)CC(C)(C)CC1=O,-1,·,2,i,-8,2,43,10
O=C(COc1ccc(Br)cc1)N1CCN(c2ccccc2)CC1,-1,-4,·,i,-7,1,2,-11
COc1ccc([N+](=O)[O-])cc1NC(=O)CSc1nc(C)c(C)c(C)n1,-3,7,21,i,-4,-1,-6,0
Cc1ccc(N2CCN(C3=NC(=O)C(Cc4ccccc4)S3)CC2)cc1 (stereo not drawn),4,·,23,i,5,4,0,-10
CC(C)NC(=O)C1(C)CCN1C(=O)c1c(F)cccc1F (stereo not drawn),5,-12,-5,·,·,5,·,·
C/C(=N\NC(=O)c1cccc(S(=O)(=O)Nc2ccc(C)cc2C)c1)c1ccncc1,-2,-16,-7,·,·,3,·,·
COc1ccc(C(=O)O)cc1S(=O)(=O)N(C)CCc1cccnc1,2,-10,·,i,3,5,10,-10
Cc1cc(F)ccc1S(=O)(=O)Nc1ccc(C(=O)N2CCCCC2)cc1,0,-15,20,·,·,6,·,0
CC(=O)c1ccc(S(=O)(=O)N2CCN(C(=O)CN3C(=O)NC4(CCCC4)C3=O)CC2)cc1,5,-11,·,i,·,-2,·,-20
CCCCn1c(SCC(=O)Nc2oc(C)c3c(C)n[nH]c(=O)c23)nc2cc(S(N)(=O)=O)ccc21,-1,-14,3,i,·,3,·,-2
O=C(NNC(=O)c1cccc2ccccc12)c1ccccc1O,-2,1,5,i,-9,10,-1,12
CC1=CN2C(=N)/C(=C/c3ccc(Sc4ccc(Cl)cc4)o3)C(=O)N=C2S1,-2,·,-11,i,13,-7,3,34
Cc1ccnc(NC(=O)CCC(=O)N(CC(=O)NC2CCCCC2)c2ccc3c(c2)OCO3)c1,-2,-15,·,i,4,0,-13,-14
CC(C)c1ccc(NC2CCCN(C(=O)c3ccnc(Cl)c3)C2)cc1 (stereo not drawn),-7,-8,-5,i,0,3,0,-7
COc1cc(C(=O)Nc2ccc3c(c2)ncn3C)cc(OC)c1OC,-12,-18,-33,i,0,3,5,54
